MLL AF4-AF9 inh: blocks AF4 peptide binding to human AF9 | 0.47% of 350,000 active | AlphaScreen, biotin-AF4 peptide binding to FLAG-AF9 | AID 651704 | inhibition, % at 10 µM;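 active means every replicate reaching a set inhibition limit, whatever the replicate mean, cut at about 25% in these data; inconclusive means mean inhibition reaches that limit but some replicates miss it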;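 further: 0% = plate neutral control median and 100% = total signal loss; the record names both 10 and 1 µM as test concentration; the first replicate is given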
Target sequence (P42568 whole entry, looked up): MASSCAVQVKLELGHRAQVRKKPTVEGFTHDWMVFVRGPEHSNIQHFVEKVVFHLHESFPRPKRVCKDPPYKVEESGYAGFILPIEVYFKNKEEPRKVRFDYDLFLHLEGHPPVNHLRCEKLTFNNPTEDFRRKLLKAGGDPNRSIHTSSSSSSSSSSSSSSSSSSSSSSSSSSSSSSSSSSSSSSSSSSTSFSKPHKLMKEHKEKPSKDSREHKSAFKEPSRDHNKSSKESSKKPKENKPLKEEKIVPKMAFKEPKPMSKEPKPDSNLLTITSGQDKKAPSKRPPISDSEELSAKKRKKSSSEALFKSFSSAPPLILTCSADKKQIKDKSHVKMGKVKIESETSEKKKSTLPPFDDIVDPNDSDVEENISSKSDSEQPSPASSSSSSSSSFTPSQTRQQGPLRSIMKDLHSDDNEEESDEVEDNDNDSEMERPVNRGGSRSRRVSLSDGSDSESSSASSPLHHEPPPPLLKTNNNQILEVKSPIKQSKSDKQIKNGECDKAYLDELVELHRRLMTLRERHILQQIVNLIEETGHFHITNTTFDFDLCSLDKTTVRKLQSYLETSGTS
Beta apoptosis: beta cell apoptosis inhibition; INS-1E cytokine-induced death, ATP luminescence, 48 h; percent of positive-control rescue, neutral wells zero; 0.8% of 300,000 active; AID 435005; protection from apoptosis, % (test concentration not listed);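 active means all replicates at 75% or more, or half of them and the mean; inconclusive means half reach 75% but not the mean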;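 further: 0% = cytokine-treated negative control wells and 100% = positive control rescue; higher means more ATP so stronger rescue from cytokine killing; wells of about 40 µL received 100 nL stock; the first replicate is given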
Calb FLC: C. albicans growth modulation with fluconazole. C. albicans CaCi-2 (fluconazole-resistant clinical isolate) + fluconazole, Alamar Blue growth, 48 h. growth inhibition, % (concentration not given with the values). 0.57% of 300,000 active;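 active means most replicates above 75%; inconclusive means exactly half above 75%; inactive means most below 75%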;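 further: all wells also contain fluconazole at 8 µg/ml as a sub-toxic cotreatment; 0% = median of DMSO wells and 100% = median of geldanamycin control wells; wells of about 8 µL received 7.5 nL stock; the first replicate is given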
T cruzi repl: T. cruzi replication inhibition; T. cruzi beta-gal in NIH3T3, luminescence, 90 h; inhibition, % (no concentration beside the values); 1.4% of 300,000 active;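 active means mean inhibition across valid replicates above about 55%, limit read from the data; inconclusive means mean below that limit but half or more replicates reach it; inactive means mean below it, under half of replicates reach it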;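 further: signal also drops with host cell toxicity which is not excluded here; 0% = plate median of DMSO wells and 100% = zero luminescence signal; higher percent means less beta-gal luminescence so fewer parasites; stock transfer was 50 nL into about 50 µL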
rRNA inh HTS: inhibitors of bacterial rRNA selective over humanized ribosomes; AID 720706; 1.6% of 350,000 active; GFP signal change (wild-type ribosome), % (no concentration beside the values); E. coli WT GFP vs humanized-ribosome RFP mutants, fluorescence, 24 h; active compounds read low; DMSO median 0, no signal -100;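 active means significant combined selectivity score with lowered wild-type GFP, culture density cut under 30%, mutant RFP and density less affected; inactive means any of these conditions unmet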; further: one replicate is shown; some compounds called inactive have numbers as strong as hits
RanGTP-Impb inh: disruptors of Ran-importin-beta complex formation – biochemical, FRET, CFP-Ran, YFP-importin-beta, homogeneous, primary screen; cell-free CFP-Ran/YFP-importin-beta FRET ratio; inhibition, % (no concentration beside the values); 1.1% of 300,000 active;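 active means most replicates above 15%; inconclusive means exactly half above 15%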;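 further: 0% = DMSO wells and 100% = Ran loaded with GDP instead of GTP; wells of about 40 µL received 100 nL stock; the first replicate is given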
ALR H2O2 inh: human ALR oxidase inhibition via reduced H2O2; inhibition, % (test concentration not listed); AID 485317; P55789; 3.8% of 290,000 active; purified ALR, DTT oxidation, H2O2 HRP-luminol luminescence;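 active means mean and each replicate at 75% or more; inconclusive means only one of the two met; inactive means neither met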;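 further: stock transfer was 7.5 nL into about 7.5 µL; 0% = neutral wells and 100% = wells with inactivated enzyme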
Target sequence (P55789 whole entry, looked up): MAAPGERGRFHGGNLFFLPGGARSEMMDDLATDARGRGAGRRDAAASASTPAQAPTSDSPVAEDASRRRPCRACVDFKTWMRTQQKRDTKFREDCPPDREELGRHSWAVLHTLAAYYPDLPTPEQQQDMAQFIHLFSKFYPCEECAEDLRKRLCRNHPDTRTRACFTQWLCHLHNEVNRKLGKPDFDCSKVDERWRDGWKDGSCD
FGF22 binding: shifts melting point of recombinant human FGF22. recombinant FGF22 thermal shift, SYPRO orange fluorescence; percent of sucrose octasulfate shift, DMSO zero. Q9HCT0. calls only at 9.99 µM. 1.5% of 340,000 active. AID 651658;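 active means melting point raised past a set limit in the mean and every replicate; inconclusive means no clear call; three in four hits are not shown here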
Target sequence (Q9HCT0 whole entry, looked up): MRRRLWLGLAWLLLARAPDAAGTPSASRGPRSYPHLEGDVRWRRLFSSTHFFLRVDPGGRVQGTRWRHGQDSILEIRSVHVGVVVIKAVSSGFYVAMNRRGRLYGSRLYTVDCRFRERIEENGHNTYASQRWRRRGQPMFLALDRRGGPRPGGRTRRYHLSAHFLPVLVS
rRNA inh HTS OD600: also measured in rRNA inh HTS; calls as there; OD600 change, %; measured here: OD600 growth;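 optical density of the mix in the first replicate; 0 = DMSO median and -100 = no signal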
rRNA inh HTS RFP: second read-out of rRNA inh HTS, no call of its own (marks repeat the call); RFP signal change, %; measured here: RFP humanized mutant strains;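 first replicate; 0 = DMSO median and -100 = no signal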
* marks the source's active call; other numbers are inactive results; i = inactive; ? = inconclusive; . = no result given.

SMILES	MLL AF4-AF9 inh	Beta apoptosis	Calb FLC	T cruzi repl	rRNA inh HTS	rRNA inh HTS OD600	rRNA inh HTS RFP	RanGTP-Impb inh	ALR H2O2 inh	FGF22 binding
C=C1c2c(Cl)ccc(O)c2C(O)=C2C(=O)[C@]3(O)C(O)=C(C(N)=O)C(=O)[C@@H](N(C)C)[C@@H]3[C@@H](O)C12 (some centres undefined)	9.3	3	.	.	.	.	.	.	20	i
CCOc1cc(/C=N/NC(N)=O)cc(Br)c1OCC(=O)Nc1cccc2ccccc12	.	-8	0	-7	.	.	.	-3.8	0	.
Cc1cccc(NC(=O)c2ccc(-n3cncn3)c([N+](=O)[O-])c2)c1	3.2	1	-3	3	3	10	-3.7	2.1	-12	i
O=C(NCCc1c[nH]c2ccccc12)c1ccco1	-5.2	-6	1	-18	2	3	-2.1	?	22	i
CN(c1cccc(NC(=O)Nc2cccc(Cl)c2)c1)S(C)(=O)=O	.	13	-15	8	.	.	.	2.3	1	.
O=C(COc1coc(CN2CCN(c3ccccc3)CC2)cc1=O)Nc1cccc(F)c1	-0.3	.	3	8	6	1	1.8	2.0	-3	i
O=C(NCCN1CCOCC1)NC1(C(F)(F)F)Oc2ccc(Cl)cc2O1 (centres undefined)	.	2	9	-17	.	.	.	1.7	99*	.
O=C(Nc1ccc(-c2noc(CCc3ccccc3)n2)cc1)c1cccnc1	.	.	-7	-7	.	.	.	-3.7	-10	.
CCN(C(=O)c1c(N)cnn1C)c1ccccc1	-1.0	-2	5	-1	12	-2	0.9	-0.8	-3	.
Cc1cccc(-n2c(CCn3nc(C)c([N+](=O)[O-])c3C)n[nH]c2=S)c1	8.9	-12	17	-1	8	5	-6.6	-1.0	92*	i
CC(=O)C1=C(O)C(=O)N(c2nccs2)C1c1ccc(F)cc1 (centres undefined)	-0.8	1	-4	-4	10	8	2.1	0.0	-2	.
CC1CCN(C(=O)CSc2ccc(-c3ccc(F)cc3)nn2)CC1	.	1	-3	11	-5	-9	1.4	?	-2	.
CN(c1ccccc1)S(=O)(=O)c1cccc(C(=O)NCc2ccccc2CN2CCCC2)c1	8.7	-7	.	.	1	-4	1.6	.	0	i
O=C(Nc1cccc(F)c1)C1CCN(C(=O)N2CCOc3ccccc32)CC1	-5.4	2	-1	44	-13	-21	-0.5	0.8	3	i
CCOC(=O)C1=C(C)NC(C)=C(C(=O)OCC)C1c1ccc(OC)cc1	.	.	-10	10	.	.	.	0.0	-1	.
O=C(CNCc1ccccn1)N1CCc2ccccc2C1	-4.9	-3	4	-3	10	-2	-6.3	1.6	-20	i
O=C(CSc1nc2[nH]ncc2c(=O)[nH]1)N1CCCCC1	0.0	-4	23	-18	20	11	0.0	3.2	.	i
c1ccc2c(c1)Nc1nccnc1S2	4.4	-2	.	.	18	5	7.6	.	7	i
COc1cccc(-c2nc(=S)c3c(n2Cc2ccco2)CCCC3)c1	.	.	-4	26	.	.	.	0.0	10	.
CC(C(=O)NCC1(c2ccccc2)CCCC1)N1CCOCC1 (centres undefined)	.	-13	6	-8	.	.	.	?	-1	.
Cc1ccc(-c2nnc(CSc3nc(C)nc4sc(C)c(C)c34)o2)cc1	.	1	-6	-20	.	.	.	?	-4	.
COc1ccc(CNC(=O)C2CCC(CNS(=O)(=O)c3ccc(C)cc3)CC2)cc1 (centres undefined)	-3.3	-20	0	-6	2	13	2.4	1.3	3	i
O=S(=O)(c1ccc(Cl)c(C(F)(F)F)c1)N1CCN(CC(O)COCC2CCCO2)CC1 (centres undefined)	.	-2	7	-4	.	.	.	3.8	-4	.
Cc1cc(NC(=O)COc2ccc([N+](=O)[O-])cc2)no1	1.6	-1	.	.	1	6	-3.6	.	8	i
CCOC(=O)c1cccc(NC(=O)C2CCC(CNc3c(N4CCOCC4)c(=O)c3=O)CC2)c1 (centres undefined)	-5.9	-14	-4	-14	7	8	1.5	?	-6	i

Just Beta apoptosis, T cruzi repl and RanGTP-Impb inh, for 2 of the compounds above:
molecule,Beta apoptosis,T cruzi repl,RanGTP-Impb inh
Cc1cc(NC(=O)COc2ccc([N+](=O)[O-])cc2)no1,-1,.,.
CCOC(=O)c1cccc(NC(=O)C2CCC(CNc3c(N4CCOCC4)c(=O)c3=O)CC2)c1 (centres undefined),-14,-14,?

(listing goes on)
SMILES	MLL AF4-AF9 inh	Beta apoptosis	Calb FLC	T cruzi repl	rRNA inh HTS	rRNA inh HTS OD600	rRNA inh HTS RFP	RanGTP-Impb inh	ALR H2O2 inh	FGF22 binding
CCNC(=O)COc1ccc2ccccc2c1	.	-2	-2	-4	.	.	.	?	-32	.
CC(=O)Oc1ccc(N(C(C)=O)S(=O)(=O)c2ccc3ccccc3c2)cc1Br	1.8	-1	7	-7	-45	-73	-9.4	-5.4	.	i
CC(C)(Oc1ccc(Cl)cc1)C(=O)N1CCN(C(=O)c2ccco2)CC1	-1.5	-2	0	3	-4	-9	-1.8	0.2	.	i
O=S(=O)(c1ccc(F)cc1)N1CCC(c2nc3ccccc3[nH]2)CC1	-0.8	8	-2	-3	-3	-3	0.0	8.5	-2	i
CCO[C@@H]1OC(C(=O)NCc2nc3ccccc3[nH]2)=C[C@H](c2cn(C(C)=O)c3ccccc23)[C@H]1CCCO	1.2	8	8	7	-12	-8	-3.0	-2.4	-2	i
O=C(Nc1ccc2c(c1)COC2=O)c1ccc(Cl)c(Cl)c1	-0.4	2	-7	6	1	9	2.9	0.7	-7	i
CC(=O)C1=C(C)NC(SCC(=O)c2ccc(Cl)cc2Cl)=C(C#N)C1c1ccco1 (centres undefined)	.	105*	22	66*	.	.	.	-43	-28	.
Cc1ccc(SCC(=O)OCC(=O)N(CC(C)C)c2c(N)n(Cc3ccccc3)c(=O)[nH]c2=O)cc1C	-4.0	-4	4	-11	7	10	-2.2	2.8	13	i
C/C(=N\NC(=O)CSc1nnc(C)s1)c1ccc(Cl)cc1	.	3	7	4	.	.	.	2.5	-3	.
CC(=O)Nc1ccc(S(=O)(=O)Nc2nnc(C(C)(C)C)s2)cc1	.	-1	0	6	.	.	.	3.3	.	.
COCCn1c(SCC(=O)N2CCc3ccccc3C2)nc2ccccc2c1=O	0.7	7	?	2	-23	-22	2.8	0.4	3	i
CS(=O)(=O)c1ccc(Cl)c(NC(=O)Cc2c(F)cccc2Cl)c1	-1.1	5	-6	2	8	9	-6.2	0.1	2	i
CN1CCC(N(C)C(=O)/C=C/c2cn(-c3ccccc3)nc2-c2cccs2)CC1	19	5	33	?	-19	-13	0.3	-1.3	-35	i
COc1ccc(C(=O)NC(=S)NCc2cccnc2)cc1Br	3.2	0	10	22	-16	-15	3.8	-2.4	3	i
CCOc1ccc(CN2CCN(CC3=Cc4cccc(OC)c4OC3)CC2CCO)cc1 (centres undefined)	7.4	-5	-30	56*	-6	-15	-3.9	4.6	-5	i
COc1ccc(-c2cc(C)no2)cc1S(=O)(=O)Nc1cccc(CN2CCCC2)c1	-2.6	0	18	18	9	11	7.7	-1.6	-1	i
CC(=O)NC12CC3CC(C1)CC(C(=O)N1CCN(S(=O)(=O)c4cccc(F)c4)CC1)(C3)C2	-1.3	-3	-2	-3	1	-4	0.8	-3.8	19	i
CC(C)(C)S(=O)(=O)c1cnc(-c2ccccn2)nc1N	-2.4	-5	-13	-16	18	4	-0.4	-2.3	-15	i
CCOC(=O)N1CCN(CC(=O)N2c3ccccc3CC2C)CC1 (centres undefined)	.	0	4	-32	.	.	.	2.0	5	.
N/C(=N\OC(=O)CCC1CCCC1)c1cccnc1	.	-2	4	1	.	.	.	-0.9	5	.
O=C(c1ccco1)N1CCN(C(=O)c2ccc(COc3ccc4c(c3)CCC4)o2)CC1	.	2	0	12	.	.	.	3.1	0	.
COc1ccc2cc(CCNC(=O)c3cccs3)c(=O)[nH]c2c1	12	.	6	-2	-3	-3	-3.8	-1.6	40	i
Nc1nc(COc2ccc(F)cc2)nc(N2CCCCC2)n1	2.6	5	-4	-7	13	1	-0.4	2.3	-6	i
CC(=O)Nc1ccc(N2CCOCC2)c([N+](=O)[O-])c1	-1.1	-5	1	-6	6	16	-1.5	0.2	1	i
Cc1cc(C)c(Cc2c(C)nc3c(C(=O)NCc4ccco4)cnn3c2C)c(C)c1	-45	31	24	59*	-9	-3	3.8	1.1	-4	i

Next part, starting with the last five of the part before.
SMILES	MLL AF4-AF9 inh	Beta apoptosis	Calb FLC	T cruzi repl	rRNA inh HTS	rRNA inh HTS OD600	rRNA inh HTS RFP	RanGTP-Impb inh	ALR H2O2 inh	FGF22 binding
O=C(c1ccco1)N1CCN(C(=O)c2ccc(COc3ccc4c(c3)CCC4)o2)CC1	.	2	0	12	.	.	.	3.1	0	.
COc1ccc2cc(CCNC(=O)c3cccs3)c(=O)[nH]c2c1	12	.	6	-2	-3	-3	-3.8	-1.6	40	i
Nc1nc(COc2ccc(F)cc2)nc(N2CCCCC2)n1	2.6	5	-4	-7	13	1	-0.4	2.3	-6	i
CC(=O)Nc1ccc(N2CCOCC2)c([N+](=O)[O-])c1	-1.1	-5	1	-6	6	16	-1.5	0.2	1	i
Cc1cc(C)c(Cc2c(C)nc3c(C(=O)NCc4ccco4)cnn3c2C)c(C)c1	-45	31	24	59*	-9	-3	3.8	1.1	-4	i
COc1ccc(S(=O)(=O)N(CC(=O)NCC2CCCO2)Cc2ccccc2)cc1 (centres undefined)	1.7	-4	8	5	-2	-5	-2.6	-2.5	.	i
Cc1cc(Cl)nc(Cl)c1C(=O)NCc1ccc(Cl)cc1	0.2	-4	2	13	-4	-19	0.5	-0.7	-22	i
COc1ccc(NS(=O)(=O)c2cc(NC(=O)CC3CCCC3)ccc2N2CCOCC2)cc1	1.4	3	-6	-7	2	-5	10	1.4	-10	i
Cc1ccc(S(=O)c2ccc(NC(=O)C3CC3)cc2C#N)cc1 (centres undefined)	-0.6	17	-3	18	-7	-14	-4.6	.	-3	i
Cc1ccc(C)c(NC(=O)C(Sc2nc3ccc(C)cc3[nH]2)c2ccccc2)c1 (centres undefined)	-1.2	5	2	50	4	3	0.5	5.4	0	i
CCN1CCN(c2cc(C)c3cc(NC(=O)Cc4ccc(OC)c(OC)c4)ccc3n2)CC1	13	-7	7	33	-5	6	-1.4	2.7	-5	i
NC1=NC(=O)/C(=C\C=C\c2ccccc2)S1	.	-5	1	-4	.	.	.	1.0	-2	.
CCOP(=O)(OCC)C(NC(=O)c1cc([N+](=O)[O-])cc([N+](=O)[O-])c1)C(F)(F)F (centres undefined)	-1.6	0	47	2	28	17	-0.6	0.4	-29	i
CCC1(CC)NC(=O)N(CC(=O)OC(C)C(=O)Nc2ccc(Cl)cn2)C1=O (centres undefined)	-18	-8	1	-10	11	6	-1.9	-7.5	3	i

These rows are one share of the data, so the mix of outcomes need not match the whole.
